Screening results: PubChem BioAssay, several laboratories
FGF22 binding: binders of human FGF22 protein, primary screen, FGF22 synaptogenesis inhibitor project, biophysical, thermal shift, single point. Fibroblast growth factor 22 (Homo sapiens), Q9HCT0. calls only at 9.99 µM. AID 651658, 2012. 1.5% of 340,000 active. recombinant FGF22 thermal shift, SYPRO orange fluorescence; percent of sucrose octasulfate shift, DMSO zero;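 active means melting point raised past a set limit in the mean and every replicate; three in four hits are not shown here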
Vif A3G: inhibitors of Vif binding to APOBEC3G peptide, primary screen, biochemical, TR-FRET, GST-Vif 1-94, biotin-A3G peptide, dose response retest (AID 1117319). TR-FRET GST-Vif / biotin-A3G peptide binding; higher % means a stronger effect; test concentration not given here; strong numbers were not always called active. one-dose inhibition, %; IC50 in µM for titrated hits. Virion infectivity factor (Human immunodeficiency virus type 1 group M subtype B (isolate …. 0.57% of 260,000 active;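 active means above the screen mean plus three standard deviations and confirmed in dose response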;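 further: Vif residues 1-94 fused to GST binding biotinylated APOBEC3G peptide 110-148; 0% = full assay without inhibitor and 100% = GST in place of GST-Vif; retest series ran down from 100 µM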
HNF4A DNA FP: change in binding of human HNF4A to DNA, primary screen, biochemical, fluorescence polarization, FITC-DNA. 1 h. 0.3% of 360,000 active. Hepatocyte nuclear factor 4-alpha (Homo sapiens), P41235. activity change, % at 10 µM; in the data active means activity change above about 30%, passing the limit was not always enough;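 further: controls were the assay level and a saturating level of protein; the project sought stronger binding though the title names inhibitors; some compounds called inactive have numbers as strong as hits; positive values seem to mean higher polarization but the record does not say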
Target sequence (P41235 whole entry, looked up): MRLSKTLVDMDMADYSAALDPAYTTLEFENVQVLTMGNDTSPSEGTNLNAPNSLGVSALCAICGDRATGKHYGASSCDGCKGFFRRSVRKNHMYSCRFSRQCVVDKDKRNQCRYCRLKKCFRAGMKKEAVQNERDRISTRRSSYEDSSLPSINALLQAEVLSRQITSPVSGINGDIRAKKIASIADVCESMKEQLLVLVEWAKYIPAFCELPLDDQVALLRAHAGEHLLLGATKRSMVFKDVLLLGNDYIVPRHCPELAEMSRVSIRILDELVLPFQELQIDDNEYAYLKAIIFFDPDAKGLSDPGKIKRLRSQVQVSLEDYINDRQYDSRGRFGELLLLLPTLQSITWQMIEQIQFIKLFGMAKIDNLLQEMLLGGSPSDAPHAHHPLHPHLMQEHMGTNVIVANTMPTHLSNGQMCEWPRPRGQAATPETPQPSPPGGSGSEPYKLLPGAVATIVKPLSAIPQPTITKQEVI
MLL AF4-AF9 inh: inhibitors of AF4 peptide binding to AF9, primary screen, biochemical, AlphaScreen, biotin-AF4 peptide, FLAG-AF9, single point; Protein AF-9 (Homo sapiens), P42568; inhibition, % at 10 µM; 0.47% of 350,000 active; AID 651704, 2012;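 active means every replicate reaching a set inhibition limit, whatever the replicate mean, cut at about 25% in these data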;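 further: 0% = plate neutral control median and 100% = total signal loss; the record names both 10 and 1 µM as test concentration; the first replicate is given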
Target sequence (P42568 whole entry, looked up): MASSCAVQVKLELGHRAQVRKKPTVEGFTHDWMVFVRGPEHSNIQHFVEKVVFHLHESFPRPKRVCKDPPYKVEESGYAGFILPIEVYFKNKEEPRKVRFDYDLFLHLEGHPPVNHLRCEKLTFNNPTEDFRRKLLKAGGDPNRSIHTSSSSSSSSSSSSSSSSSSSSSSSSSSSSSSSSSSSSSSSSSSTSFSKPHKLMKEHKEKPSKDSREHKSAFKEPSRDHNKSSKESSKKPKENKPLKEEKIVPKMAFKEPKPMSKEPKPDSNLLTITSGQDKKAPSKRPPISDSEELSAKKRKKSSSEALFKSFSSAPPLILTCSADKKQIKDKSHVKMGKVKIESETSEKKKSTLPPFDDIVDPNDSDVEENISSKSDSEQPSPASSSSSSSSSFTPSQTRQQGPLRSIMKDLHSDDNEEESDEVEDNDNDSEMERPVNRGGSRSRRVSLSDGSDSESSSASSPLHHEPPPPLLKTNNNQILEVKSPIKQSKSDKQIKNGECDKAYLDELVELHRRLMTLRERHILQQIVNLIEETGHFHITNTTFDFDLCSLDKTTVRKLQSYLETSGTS
E coli growth: E. coli growth inhibition, primary screen, OD600; OD600 absorbance (concentration not given with the values); Escherichia coli growth, 23 h; active compounds read low; 0.21% of 330,000 active;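 active means OD600 absorbance below the run mean of sample wells minus 3.6 SD, in any replicate, cut at about 0.56 in these data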;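 further: stock transfer was 300 nL into about 60 µL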
ALR H2O2 inh: inhibitors of human ALR sulfhydryl oxidase, primary screen, biochemical, H2O2 detection, HRP-luminol luminescence, single point. FAD-linked sulfhydryl oxidase ALR (Homo sapiens), P55789. purified ALR, DTT oxidation. inhibition, % (concentration not given with the values). 3.8% of 290,000 active. AID 485317, 2010;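 active means mean and each replicate at 75% or more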;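 further: stock transfer was 7.5 nL into about 7.5 µL; 0% = neutral wells and 100% = wells with inactivated enzyme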
Ecoli rRNA inh: reduced GFP signal of wild-type E. coli, primary screen, bacterial rRNA inhibitor project, GFP/RFP fluorescence, OD600, single point. GFP signal change (wild-type ribosome), % (no concentration beside the values). 1.6% of 350,000 active. E. coli WT GFP vs humanized-ribosome RFP mutants, 24 h; active compounds read low; DMSO median 0, no signal -100;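 active means significant combined selectivity score with lowered wild-type GFP, culture density cut under 30%, mutant RFP and density less affected; inactive means any of these conditions unmet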; further: one replicate is shown; some compounds called inactive have numbers as strong as hits
Ecoli rRNA inh OD600: further read-out of Ecoli rRNA inh, marked with its call; OD600 change, %; measured here: OD600 growth;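 optical density of the mix in the first replicate; 0 = DMSO median and -100 = no signal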
Ecoli rRNA inh RFP: also measured in Ecoli rRNA inh; calls as there; RFP signal change, %; measured here: RFP humanized mutant strains;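 first replicate; 0 = DMSO median and -100 = no signal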
Numbers without * were called inactive; i = inactive; . = no result given; + = active, no number; & = joins results of further samples.

SMILES	FGF22 binding	Vif A3G	HNF4A DNA FP	MLL AF4-AF9 inh	E coli growth	ALR H2O2 inh	Ecoli rRNA inh	Ecoli rRNA inh OD600	Ecoli rRNA inh RFP
O=C(c1cccs1)N(Cc1ccc(F)cc1)C1CCS(=O)(=O)C1 (stereo not drawn)	i	.	2.0	-2.5	0.71	0	5	6	2.9
Cc1ccccc1CN(C)C[C@H]1OCc2cn(nn2)CCCC(=O)N([C@H](C)CO)C[C@@H]1C	i	.	.	-0.9	.	.	1	1	0.0
CCCCN1CC(COCc2ccccc2)Oc2cccc(OCc3ccc(OC)cc3)c2S1(=O)=O (stereo not drawn)	i	6%	-2.4	3.6	.	.	22	14	0.4
O=C(Nc1ccccc1F)N[C@@H]1CC[C@@H](CCNC(=O)C2CC2)O[C@@H]1CO	i	.	.	-13	.	.	1	-4	-2.4
C/C=C/c1ccc2c(c1)O[C@@H](CN(C)C(=O)Nc1ccc(OC)cc1)[C@@H](C)CN([C@H](C)CO)S2(=O)=O	i	.	.	3.2	.	.	-7	-17	0.1
COCC(=O)Nc1ccc2c(c1)[C@@H]1C[C@H](CC(=O)N3CCc4ccccc4C3)O[C@H](CO)[C@@H]1O2	i	.	.	1.8	.	.	1	2	0.3
COC(=O)c1cc(=O)nc2sc(-c3ccccc3)nn12	.	-1%	-2.4	.	0.64	-2	.	.	.
C[C@@H]1CN([C@@H](C)CO)C(=O)CCCn2cc(nn2)CO[C@H]1CN(C)Cc1ccc(O)cc1	i	.	.	-0.7	.	.	2	1	-2.0
COc1ccc(NC(=O)C2(C)CCN2Cc2ccc(OC(F)(F)F)cc2)cc1OC (stereo not drawn)	i	.	3.1	-1.3	.	.	-3	1	-4.7
Cc1oc(-c2cccc(Cl)c2)[n+]([O-])c1C	.	0%	-0.2	.	0.72	9	.	.	.
CCC1NC(=O)c2cccnc2-n2c1nc1ccc(C)cc1c2=O (stereo not drawn)	i	-2%	-5.7	2.1	.	.	13	8	-0.2
CCCCCCn1c(NCC)nc2c1c(=O)n(C)c(=O)n2C	.	3%	-1.8	.	0.69	16	.	.	.
C[C@H](CO)N1C[C@H](C)[C@H](CN(C)C(=O)Cc2cccnc2)Oc2ncc(-c3cccnc3)cc2C1=O	i	.	.	0.0	.	.	8	1	-4.3
C[C@@H]1CN([C@@H](C)CO)S(=O)(=O)c2ccc(C3=CCCCC3)cc2O[C@@H]1CN(C)S(C)(=O)=O	i	.	.	1.2	.	.	2	-3	-2.9
Cc1nn(Cc2ccc([N+](=O)[O-])cc2)c(=O)n1-c1ccccc1Cl	i	-5%	-0.7	0.4	0.71	-4	14	-5	-0.2
Cc1nc2ccccc2c(=O)n1NC(=O)COc1ccccc1	i	4%	-0.3	2.2	0.66	-5	10	-14	4.6
Cn1ccnc1Sc1ccc(C(N)=O)cc1[N+](=O)[O-]	i	20%	1.1	-3.4	0.71	-3	7	-10	-1.3
COc1ccc(CN(C)C[C@@H]2Oc3ccc(NC(=O)c4ccncc4)cc3CC(=O)N([C@H](C)CO)C[C@@H]2C)cc1	i	.	.	-1.4	.	.	-3	-1	2.0
O=C1NCCc2cc3c(cc21)OCO3	.	-1%	1.7	.	0.68	-1	.	.	.
COc1cc(C(=O)NNC(=O)/C=C/c2ccco2)cc(OC)c1OC	i	.	-3.2	-4.1	0.69	5	-1	11	0.2
CCOC(=O)C1(CCc2ccccc2)CCN(C(=O)c2cccc(C)n2)CC1	i	0%	1.6	-1.9	0.74	-3	2	3	-1.3
CC(C)NC(=O)N(C)C[C@@H]1Oc2c(NC(=O)c3ccc(-c4nccs4)cc3)cccc2C(=O)N([C@@H](C)CO)C[C@@H]1C	i	.	.	-17	.	.	-4	-3	0.8
COc1ccc(-c2nc3c4c(ncn3n2)-c2ccccc2CC42CCCC2)cc1	i	-6%	1.8	0.4	.	2	5	5	-1.6
C[C@H](CO)N1C[C@H](C)[C@H](CN(C)C(=O)Nc2ccc(F)cc2)Oc2c(NC(=O)c3ccc(-c4nccs4)cc3)cccc2C1=O	.	.	5.6	.	0.7	0	-2	-2	-2.1
CCCCn1c(N)c(N(CCC(C)C)C(=O)C2=NN(c3cc(C)ccc3C)C(=O)CC2)c(=O)[nH]c1=O	i	38%	-0.6	-8.8	0.63	-6	3	2	-2.0
CCOC(=O)c1cnc2ccc(C)cc2c1Sc1ccccc1C(=O)OC	.	-4%	6.5	.	0.74	5	.	.	.
CCCOc1ccc(/C=C/C(=O)NC2CCCCC2)cc1	i	.	0.0	2.0	0.73	13	9	0	1.5
CSc1nc(C)[nH]c(=O)c1C#N	i	.	2.5	-10	0.6	-14	8	8	0.1
Cc1cc(S(=O)(=O)Nc2ccc(C(=O)NCCCN3CCCC3=O)cc2)ccc1F	i	-1%	0.0	-0.4	0.65	3	4	1	-0.8
COc1ccccc1NC(=O)Nc1cccc(NC(C)=O)c1	+	-2%	-1.3	2.5	0.7	11	2	-10	-12

Three records drawn at random from the list so far:
SMILES	FGF22 binding	Vif A3G	HNF4A DNA FP	MLL AF4-AF9 inh	E coli growth	ALR H2O2 inh	Ecoli rRNA inh	Ecoli rRNA inh OD600	Ecoli rRNA inh RFP
CCCOc1ccc(/C=C/C(=O)NC2CCCCC2)cc1	i	.	0.0	2.0	0.73	13	9	0	1.5
COc1ccccc1NC(=O)Nc1cccc(NC(C)=O)c1	+	-2%	-1.3	2.5	0.7	11	2	-10	-12
Cc1nc2ccccc2c(=O)n1NC(=O)COc1ccccc1	i	4%	-0.3	2.2	0.66	-5	10	-14	4.6

Copied from the list.
CCOC(=O)C1(CCc2ccccc2)CCN(C(=O)c2cccc(C)n2)CC1 in E coli growth shows 0.74
COc1ccc(CN(C)C[C@@H]2Oc3ccc(NC(=O)c4ccncc4)cc3CC(=O)N([C@H](C)CO)C[C@@H]2C)cc1 in Ecoli rRNA inh shows -3
CSc1nc(C)[nH]c(=O)c1C#N in HNF4A DNA FP shows 2.5

Additional entries.
SMILES	FGF22 binding	Vif A3G	HNF4A DNA FP	MLL AF4-AF9 inh	E coli growth	ALR H2O2 inh	Ecoli rRNA inh	Ecoli rRNA inh OD600	Ecoli rRNA inh RFP
c1ccc(SCc2nc(-c3ccccn3)no2)cc1	.	-1%	0.1	.	0.74	-1	.	.	.
O=C(CCCCn1ccc(=O)[nH]c1=O)Nc1ccc(C(=O)O)c(O)c1	.	1%	-3.5	-4.0	0.7	.	10	9	0.7
C[C@@]12C(=O)Nc3ccc(Cl)cc3C(=O)N1[C@H]1c3cc(Cl)ccc3OC[C@@H]1[C@@H]2c1ccccc1	i	.	1.5	6.6	.	2	0	-5	-2.1
CC1Cc2cc(S(=O)(=O)N3CCN(C)CC3)ccc2N1C(=O)C1CC1 (stereo not drawn)	i	.	0.4	-0.1	0.66	-4	2	-3	-0.5
COc1ccc(N=C2c3ccccc3-c3ccc([N+](=O)[O-])cc32)cc1	i	-3%	-1.4	4.1	0.68	.	-14	1	0.9
CO[C@H]1CN(C)C(=O)c2cc(NS(C)(=O)=O)ccc2OC[C@H](C)N(C(=O)C2CCC2)C[C@@H]1C	i	.	.	-3.4	.	.	3	2	-0.1
Cc1cc(C(=O)Nc2cccc3c2O[C@H](CN(C)C(=O)Nc2ccc(F)cc2)[C@@H](C)CN([C@H](C)CO)C3=O)n(C)n1	i	.	.	-1.0	.	.	4	8	0.7
CN(c1ccccc1)S(=O)(=O)c1cc(C(=O)OCC(N)=O)ccc1Cl	i	.	1.2	0.3	0.71	-3	-33	-34	-2.1
CSc1nc(N)nc(-c2cccs2)c1C#N	.	-10%	4.7	.	0.68	.	.	.	.
COc1cc(Cl)cc(C2NC(=O)NC(C)=C2C(C)=O)c1OCC(=O)O (stereo not drawn)	.	5%	-5.8	.	0.65	-3	.	.	.
COC1Cc2ccccc2N(C(N)=O)c2ccccc21 (stereo not drawn)	i	.	-4.6	3.2	0.65	-8	-3	8	-0.2
COc1ccc(NC(=O)N(C)C[C@H]2Oc3ccc(NC(=O)Cc4ccccc4)cc3C(=O)N([C@@H](C)CO)C[C@@H]2C)cc1	i	.	.	0.0	.	.	-1	5	-2.1
O=C1c2[nH]c(=O)[nH]c(=O)c2CN1Cc1ccccc1	i	-7%	2.0	-8.1	0.66	.	-3	10	-6.9
CN(C)CC(=O)N1[C@H](CO)[C@H](c2ccccc2)C12CN(C(=O)C1CCCC1)C2	i	.	.	-3.4	.	.	1	-1	-0.9
CO[C@H]1CN(C)C(=O)c2ccc(NS(C)(=O)=O)cc2OC[C@@H](C)N(Cc2nccs2)C[C@@H]1C	i	.	.	0.4	.	.	-1	1	-2.1

Among those listed so far, these have a COOH group:
SMILES	FGF22 binding	Vif A3G	HNF4A DNA FP	MLL AF4-AF9 inh	E coli growth	ALR H2O2 inh	Ecoli rRNA inh	Ecoli rRNA inh OD600	Ecoli rRNA inh RFP
O=C(CCCCn1ccc(=O)[nH]c1=O)Nc1ccc(C(=O)O)c(O)c1	.	1%	-3.5	-4.0	0.7	.	10	9	0.7
COc1cc(Cl)cc(C2NC(=O)NC(C)=C2C(C)=O)c1OCC(=O)O (stereo not drawn)	.	5%	-5.8	.	0.65	-3	.	.	.

(continued)
SMILES	FGF22 binding	Vif A3G	HNF4A DNA FP	MLL AF4-AF9 inh	E coli growth	ALR H2O2 inh	Ecoli rRNA inh	Ecoli rRNA inh OD600	Ecoli rRNA inh RFP
Cc1[nH]nc2c1C(c1ccsc1C)C(C#N)=C(N)O2 (stereo not drawn)	.	3%	4.5	.	0.66	10	.	.	.
CS(=O)(=O)N1CCCCC1CCN1CCCCC1 (stereo not drawn)	i	64%	0.7	-0.7	0.64	.	.	.	.
CC(C)(C)[S@@](=O)N1Cc2cc(C(=O)N3CCOCC3)nc(-c3cccc(-c4ccc(C#N)cc4)c3)c2[C@H]1CCO	i	.	.	-3.1	.	.	0	1	14
N#CC(c1nc2ccccc2nc1N1CCOCC1)S(=O)(=O)c1ccccc1 (stereo not drawn)	i	-6%	5.5	-1.0	0.64	.	0	5	5.8
O=C(Oc1cc(=O)oc2ccccc12)c1ccco1	.	5%	0.4	.	0.74	-2	.	.	.
CS(=O)(=O)N(CCC#N)Cc1ccc(/C=C2\C(=O)Nc3ccccc32)o1	i	-11%	0.0	-0.5	0.7	-9	7	-2	5.2
CCn1c(SCc2ccc(C)cc2)nnc1-c1cnccn1	.	2%	0.3	.	0.64	-6	.	.	.
CN(C)S(=O)(=O)c1cccc(C(=O)OCC(=O)Nc2sccc2C(N)=O)c1	.	-14%	-4.5	.	0.73	-2	.	.	.
COc1ccc(S(=O)(=O)N2CCC(C(=O)NCc3ccncc3)CC2)cc1OC	i	-1%	-0.4	3.4	.	-1	9	8	-1.6
C[C@H](CO)N1C[C@H](C)[C@@H](CN(C)Cc2ccc(-c3ccccc3)cc2)Oc2ccc(NS(C)(=O)=O)cc2CC1=O	i	.	.	17	.	.	-57	-77	-17
O=C(COc1ccccc1)Nc1ccc(S(=O)(=O)N2CCOCC2)cc1	.	28%	-1.3	.	0.72	1	.	.	.
Cc1cccc(N2CCN(C(=O)c3ccc(CS(=O)(=O)c4ccccc4C)o3)CC2C)c1 (stereo not drawn)	.	3%&14%	0.0	.	0.68	95*	.	.	.
Cc1cccc(C(=O)NNC(=O)c2ccc(Cl)cc2)c1O	.	-4%	1.1	.	0.68	4	.	.	.
Cn1c(N)c(C(=O)COC(=O)c2cc(S(=O)(=O)N3CCCCC3)ccc2Cl)c(=O)n(C)c1=O	i	3%	2.5	-5.6	0.69	-1	-26	-32	-6.8

These rows are one share of the data, so the mix of outcomes need not match the whole.
